Bioassay records (PubChem)
NPYLR7 ag: mosquito NPYLR7 agonism; activation, % at 10 µM; AID 1259423; HEK293T NPYLR7/Galpha15, GCaMP6s calcium fluorescence; 270,000 tested, 0.15% active; in the data active means activation above about 40%;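 further: 0% = vehicle and 100% = reference agonist at the receptor; some compounds past the cut are filed as inactive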
NPYLR7 ag max-min: second read-out of NPYLR7 ag, no call of its own (marks repeat the call); activation, %; measured here: Max-Min RFU normalised activation; some inactives read as strong as hits;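 span of the calcium signal over five minutes; 0% = vehicle and 100% = native peptide agonist; compound fluorescence can raise it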
* marks the source's active call; other numbers are inactive results; & = joins results of further samples; ! = repeats disagree. Only part of the results is shown; rates above refer to the full screens.

#	Compound	NPYLR7 ag	NPYLR7 ag max-min
1	O=C(NCC1CCCO1)c1csc(COc2ccc([N+](=O)[O-])cc2)n1 (stereo not given)	39	37
2	O=C(CCc1nc2ccccc2[nH]1)NCC1(O)CCNC1 (stereo not given)	3	1
3	CCc1ccc(S(=O)(=O)Nc2ccccc2-n2ncc(C#N)c2N)s1	5	-4
4	CCc1nc2ccc(C(=O)NCCC(C)C)cn2c1N(CCN(C)C)CC1CC1	-6	-10
5	O=C1CC(NCC2CCCO2)C(=O)N1c1ccc(-c2nc3ccccc3o2)cc1 (stereo not given)	-7	-12
6	Cc1cc(N2CCCC2)ccc1NC(=O)c1cccc(NC(=O)OC(C)(C)C)c1	16	17
7	CC1CCN(Cc2nc(N)nc(Nc3ccc(F)cc3)n2)CC1	4	4
8	CS(=O)(=O)c1cccc(C(=O)NCc2ccco2)c1	3	2
9	Cc1c(CN2CCCC(O)(CO)CC2)[nH]c2ccc(F)cc12 (stereo not given)	4	1
10	CCCCCn1c(CN(Cc2ccccc2)Cc2ccccc2)nc2c1c(=O)[nH]c(=O)n2C	1	41
11	Cc1ccc(C(C)C)c(OCCOc2ccc(/C=N\n3cnnc3)cc2)c1	-3	-4
12	CCOC(=O)CN(C(=O)c1cc(C)nn1C)[C@@H]1C[C@@H]2CO[C@H](C(C)C)C[C@@H]2C1	23	21
13	Cc1cnccc1N1CCCN(C(=O)CCc2n[nH]c3c2CCCC3)CC1	-8	-16
14	Cc1cc(OC(=O)CCC2CCCC2)c([N+](=O)[O-])c(=O)[nH]1	0	-1
15	NC1=NC(c2cccs2)n2c(nc3ccccc32)N1 (stereo not given)	-5	-4
16	O=C(NCc1ccc(F)cc1)c1csc(CSc2nnc(-c3ccncc3)n2-c2ccccc2Cl)n1	-3	-2
17	COCCCC1CCN(Cc2cn[nH]c2-c2cccc3ccccc23)CC1	-1	-3
18	C=CC[C@@H]1CC=C[C@@H](c2ccccc2)N1CC1CCOCC1	-2&12	-5&4
19	CCc1ccc(NC(=O)CN2C(=O)NC(C)(c3ccccc3)C2=O)cc1 (stereo not given)	4	4
20	CCc1cccc2c(C(CC(=O)NCc3ccc(F)cc3)c3ccccc3OC)c[nH]c12 (stereo not given)	5	15
21	CC(=O)N1CCC2(CC1)OC(=O)C(C)=C2C(=O)NCCN1CCCCC1C (stereo not given)	-4	-6
22	Cc1cc(CN2C[C@@H](C(=O)O)C[C@@H](C(=O)NCc3ccccn3)C2)oc1C	0	-1
23	O=C(CSc1nc2ccccc2o1)c1ccc(O)c(O)c1	9	3
24	O=C(CCn1cccc1)N1CC[C@@H](c2ccc3ccccc3c2)[C@H](O)C1	-4	-5
25	CCC(C)N(Cc1ccc(OS(=O)(=O)c2cccc(C(F)(F)F)c2)cc1)C(=O)Nc1ccc(OC)cc1OC (stereo not given)	10	21
26	CN(Cc1n[nH]c2c1CCCCC2)C(=O)CC1COCCN1 (stereo not given)	-4	-3
27	CC(=O)c1ccc(N2CCN(C(=O)CSc3cc(F)ccc3F)CC2)cc1	-3	-7
28	Cc1onc(-c2ccccc2Cl)c1C(=O)Nc1nn[nH]n1	5	3
29	COc1ccc(-c2c(C)oc3c4c(ccc3c2=O)OCN(CCc2cccs2)C4)cc1OC	-1	-5
30	CCN(CC)S(=O)(=O)CC(=O)NCC1Cc2ccccc21 (stereo not given)	10	8
31	Cc1csc(C(C#N)C(=O)CSc2nnc(C3CC3)n2C2CC2)n1 (stereo not given)	4	8
32	CCCCCCc1nc(C(N)=O)c2[nH]c(=O)n(-c3ccccc3F)c2n1	17	8
33	CCOc1cc(C(=O)N2CCC3CCCCC3C2)cc(Br)c1OC (stereo not given)	-4	-4
34	CC(/C=C1\N=C(c2ccc(C)c(C)c2)OC1=O)=C\c1ccccc1	-1	-4
35	O=C(CSCc1ccc(Cl)c2cccnc12)Nc1ccccc1	1	0
36	CNc1nc2cnc(Nc3cccc(C)c3)cc2n1CCOC	12	3
37	NS(=O)(=O)c1ccc(CCNC(=O)CCCn2nc(-c3ccco3)ccc2=O)cc1	5	11
38	CCCN(Cc1csc(COc2ccc(OC)cc2)n1)C(=O)c1ccc(C)cc1	30	26
39	O=C(c1cc(F)ccc1Cl)N1CCN(c2nccc(-c3ccc(Oc4ccccc4)cc3)n2)CC1	11	5
40	Cc1onc(C(=O)NCC2CCCO2)c1[N+](=O)[O-] (stereo not given)	12	10
41	Cc1noc(-c2cccc(F)c2)c1C(=O)N(C)CCc1ccccn1	3	6
42	O=C1CSC(c2cn(-c3ccccc3)nc2-c2ccccc2)N1CCO (stereo not given)	-2	-4
43	CCc1cc(NCc2nc3ccccc3c(=O)[nH]2)nc(N2CCOCC2)n1	7	6
44	CCOc1cccc2cc(-c3nc4ccccc4[nH]3)c(=Nc3ccccc3Cl)oc12	16	12
45	Brc1cccc(C2CC(c3ccccc3)Nc3ncnn32)c1 (stereo not given)	0	-2
46	CNCC(=O)NC1CC(=O)N(c2ccccc2OC)C1 (stereo not given)	2	-5
47	Cc1cc(C(F)(F)F)nn1CC(=O)Nc1ccc(OC(F)(F)F)cc1	5	-7
48	Cc1ccc(CN(C)C(C)c2nc(C)sc2C)o1 (stereo not given)	3	2
49	COc1ccc(CNC(=O)C2CC=CCC2C(=O)N2CCc3c([nH]c4ccccc34)C2)c(OC)c1 (stereo not given)	14	-2
50	Cc1ccc(-c2cc(C(F)(F)F)n3ncc(C(=O)NC(C)(C)CC(C)(C)C)c3n2)cc1	-6	5
51	CC12CC(c3cc(Cl)ccc3O1)C(S(=O)(=O)c1ccc(F)cc1)C(=O)N2 (stereo not given)	5	10
52	CC=CCn1c(=O)c2c(nc3n2C(C)C(C)=NN3CC(N)=O)n(C)c1=O (stereo not given)	8	9
53	Cc1noc(C)c1NC(=O)c1ccc(CN2CCCC2c2ccccn2)cc1 (stereo not given)	15	15
54	COc1ccc(CCN(C)C2CCCN(C(=O)CC3=CCCCC3)C2)cc1OC (stereo not given)	1	-1
55	CCOC(=O)C1(Cc2cccc(Cl)c2)CCCN(C(=O)C2=C(C)OCCO2)C1 (stereo not given)	6&-10	2&-11
56	Cc1ccccc1C(=O)NC1CC(C)(C)Cc2nc(N3CCOCC3)ncc21 (stereo not given)	8	0
57	Cc1cc2nc(-c3cc(NC(=O)c4ccc(C)c([N+](=O)[O-])c4)ccc3O)oc2cc1C	10	7
58	CCCCCCNC(=O)c1cc(-c2cccc(OC)c2)nn1-c1ccccc1	-3	2
59	NC(=O)c1ccc(NCC(=O)N2CCC2c2ccc(Cl)cc2)cc1 (stereo not given)	0	-3
60	Cc1nc(C(C)NC(=O)Cn2nnnc2CN2CCc3ccccc3C2)c(C)s1 (stereo not given)	-5	-7

Remaining list, next part.
#	Compound	NPYLR7 ag	NPYLR7 ag max-min
61	Cc1ccc(C=Nn2cnc3sc(C)c(C)c3c2=O)o1	-21	-28
62	O=C(CNC(=O)c1ccco1)NCCCCOc1ccc(F)cc1	-7	4
63	COc1ccc(-c2nnc3ccc(OCCNC(=O)c4ccccc4)nn23)cc1OC	2	30
64	CC1=NN(CCN2CCOCC2)c2nc3c(c(=O)n(CCC(C)C)c(=O)n3C)n2C1	2	-1
65	C=CCc1ccccc1OCCN(C)C(=O)c1ccc2[nH]c(=O)c(=O)[nH]c2c1	6	1
66	O=c1cc(CSc2nc3ccccc3s2)nc2ccc(Br)cn12	5	1
67	Cc1ccccc1SCCC(=O)NCc1ccc(F)cc1	4	1
68	CCOC(=O)c1nn(CC)c2c1CN(C(=O)c1cc(-c3ccsc3)n[nH]1)CC2	11	-1
69	COc1ccc(S(=O)(=O)NCC2CCCN(C(=O)CSc3ccccc3)C2)cc1 (stereo not given)	50*!	46*!
70	O=C1CSC(c2ccc(F)cc2)N1Cc1ccccc1 (stereo not given)	-11	-13
71	Cc1ccc2nc(N(CCCn3ccnc3)C(=O)Cc3ccc(F)cc3)sc2c1	-8	-12
72	CCN(CC)S(=O)(=O)c1ccc(Cl)c(Cl)c1	16	21
73	Cc1nn(C)c2ncc(C(=O)NCCn3cnnc3C(C)C)cc12	-2	91
74	Cc1cc(C2=[N+]([O-])C(C)(C)C(c3ccc(Cl)c(C)c3)=[N+]([O-])C2(C)C)ccc1Cl	4	12
75	COc1cc(OC)cc(C(=O)NCC2CCCN(Cc3ccc(SC)cc3)C2)c1 (stereo not given)	19	12
76	CC1(C)Cc2c(sc3nc(NCc4ccccc4)n4c(=S)[nH]nc4c23)CO1	2	-3
77	CCC(=O)Nc1ccc(-c2cccc(NC(C)=O)c2)c(C)n1	4	-1
78	CCOC(=O)[C@@H]1[C@@H](OC(N)=O)C(=O)N(C(C)C)C12CCN(S(=O)(=O)c1ccccc1)CC2	26	26
79	CC(=O)N1CCC(NS(=O)(=O)/C=C/c2ccccc2)CC1	7	4
80	O=S(=O)(NCCN1CCOCC1)c1ccc(F)cc1	4	-1
81	O=C(Cn1nc(-c2cccs2)c2sc(N3CCCCC3)nc2c1=O)Nc1ccccc1F	-1	-6
82	Oc1oc(-c2ccc(Cl)cc2)nc1C=Nc1ccc(Br)cc1	-3	-6
83	COCCN(CC(=O)Nc1cc(C(C)(C)C)nn1-c1ccc(C)cc1C)C(=O)Nc1cccc(Cl)c1Cl	-2	-1
84	O=C(CNC(=O)/C=C/c1ccccc1)N=Nc1c(O)[nH]c2ccccc12	-16	-15
85	Cc1ccc2nc(COC(=O)Cn3cc(C(F)(F)F)ccc3=O)cc(=O)n2c1	0	-5
86	Cc1ncc(C(=O)Nc2ccc3c(c2)CCC(=O)N3)[nH]1	9	5
87	Cc1ccc2oc(-c3cccc(NC(=O)c4cccc(F)c4)c3)nc2c1	-2	-3
88	CC(=O)NC1CCCN(CC(C)N2CCCC(NC(C)=O)C2)C1 (stereo not given)	8	4
89	O=C(CC1CC2CCC1C2)Nc1cc2c(cc1Br)NC(=O)CO2 (stereo not given)	1	0
90	COc1cc(-c2nc3ccc(NS(=O)(=O)c4ccoc4)cn3n2)cc(OC)c1OC	3	-1
91	Cc1nccn1CCN(C)C(=O)c1ccccc1C1CCNC1 (stereo not given)	-3	-3
92	c1ccc(CNc2nc(NCc3ccccc3)c3ccccc3n2)cc1	9	-1
93	CC(C)C(C(=O)Nc1ccc(C#N)cc1)c1ccc(Cl)cc1 (stereo not given)	-5	-6
94	S=C(NN=Cc1ccc2c(c1)OCCO2)NN=Cc1ccc2c(c1)OCCO2	0	6
95	CCCc1ncncc1C(=O)N1CCCC2(CC1)CN(C)C(=O)O2 (stereo not given)	-3	-4
96	CCC1SC(c2ccc(C(C)(C)C)cc2)N(CCN2CCN(C(=O)NC(C)C)CC2)C1=O (stereo not given)	13	13
97	O=C(CC(NCCN1CCOCC1)C(=O)O)Nc1ccc2ccccc2c1 (stereo not given)	0	-2
98	COCc1ccc(CN2CCCC(C(=O)Nc3cccc(-c4cc5ccccc5[nH]4)c3)C2)o1 (stereo not given)	3	2
99	CCn1c(CCC(=O)NC(c2ccccc2)C2CC2)nc2cc(S(=O)(=O)N3CCOCC3)ccc21 (stereo not given)	11	8
100	CC(C)(C)c1ccccc1OCC(=O)N1CCN(c2nccs2)CC1	-1	29
101	CCCN(CCO)C(=O)CCn1c(C)cc(C)nc1=O	-6	-9
102	COc1ccc(CCNC(=O)c2cnn3ccn(C)c23)cc1OC	23	12
103	O=C(c1cccc2ccccc12)N1CCN(C2c3ccccc3CCc3ccccc32)CC1	28	31
104	COc1cc(CSc2nc(=O)n3ccccc3n2)cc(OC)c1	6	3
105	O=C(O)c1coc(CN(Cc2cccc(Cl)c2)Cc2ccc3c(c2)OCO3)n1	-6	-6
106	CCc1ccc(C(=O)Nc2ccc(N3CCN(C(=O)OC(C)(C)C)CC3)cn2)cc1	3	2
107	Cc1nc(NCC2COc3ccccc3C2)cc2nncn12 (stereo not given)	12	22
108	Cc1ccc(-c2nc3n(c2CNC(=O)c2cccnc2)CCS3)cc1	13	9

Among those listed so far, these have an aryl methoxy group:
#	Compound	NPYLR7 ag	NPYLR7 ag max-min
20	CCc1cccc2c(C(CC(=O)NCc3ccc(F)cc3)c3ccccc3OC)c[nH]c12 (stereo not given)	5	15
25	CCC(C)N(Cc1ccc(OS(=O)(=O)c2cccc(C(F)(F)F)c2)cc1)C(=O)Nc1ccc(OC)cc1OC (stereo not given)	10	21
29	COc1ccc(-c2c(C)oc3c4c(ccc3c2=O)OCN(CCc2cccs2)C4)cc1OC	-1	-5
33	CCOc1cc(C(=O)N2CCC3CCCCC3C2)cc(Br)c1OC (stereo not given)	-4	-4
38	CCCN(Cc1csc(COc2ccc(OC)cc2)n1)C(=O)c1ccc(C)cc1	30	26
46	CNCC(=O)NC1CC(=O)N(c2ccccc2OC)C1 (stereo not given)	2	-5
49	COc1ccc(CNC(=O)C2CC=CCC2C(=O)N2CCc3c([nH]c4ccccc34)C2)c(OC)c1 (stereo not given)	14	-2
54	COc1ccc(CCN(C)C2CCCN(C(=O)CC3=CCCCC3)C2)cc1OC (stereo not given)	1	-1
58	CCCCCCNC(=O)c1cc(-c2cccc(OC)c2)nn1-c1ccccc1	-3	2
63	COc1ccc(-c2nnc3ccc(OCCNC(=O)c4ccccc4)nn23)cc1OC	2	30
69	COc1ccc(S(=O)(=O)NCC2CCCN(C(=O)CSc3ccccc3)C2)cc1 (stereo not given)	50*!	46*!
75	COc1cc(OC)cc(C(=O)NCC2CCCN(Cc3ccc(SC)cc3)C2)c1 (stereo not given)	19	12
90	COc1cc(-c2nc3ccc(NS(=O)(=O)c4ccoc4)cn3n2)cc(OC)c1OC	3	-1
102	COc1ccc(CCNC(=O)c2cnn3ccn(C)c23)cc1OC	23	12
104	COc1cc(CSc2nc(=O)n3ccccc3n2)cc(OC)c1	6	3
